Screens from PubChem.
B2AR ag = beta2AR agonists driving receptor internalization, primary screen, cell-based, FAP fluorogen, flow cytometry. Beta-2 adrenergic receptor (Homo sapiens), P07550. Am2.2-beta2AR cells; reference of the scale not given here. response, % (test concentration not listed). 340,000 compounds, 0.43% hits;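 active means response above a set limit, near 3 SD of response in nonfluorescent compounds, cut at about 42% in these data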;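 further: stock transfer was 100 nL into about 11 µL; a reference agonist was the positive control; negative values mostly stem from fluorescent compounds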
Target sequence (P07550 whole entry, looked up): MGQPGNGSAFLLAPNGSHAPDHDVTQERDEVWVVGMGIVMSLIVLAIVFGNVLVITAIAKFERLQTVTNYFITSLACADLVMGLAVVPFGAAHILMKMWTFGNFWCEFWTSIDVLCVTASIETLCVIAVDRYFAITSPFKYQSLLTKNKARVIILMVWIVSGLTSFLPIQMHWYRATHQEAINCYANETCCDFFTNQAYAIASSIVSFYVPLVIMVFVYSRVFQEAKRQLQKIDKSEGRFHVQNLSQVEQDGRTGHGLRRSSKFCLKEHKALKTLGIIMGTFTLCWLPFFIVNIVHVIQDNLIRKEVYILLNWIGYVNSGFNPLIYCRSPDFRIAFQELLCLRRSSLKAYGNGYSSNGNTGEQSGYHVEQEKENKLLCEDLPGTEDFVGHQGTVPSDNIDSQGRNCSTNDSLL
FGF22 binding = binders of human FGF22 protein, primary screen, FGF22 synaptogenesis inhibitor project, biophysical, thermal shift, single point; Fibroblast growth factor 22 (Homo sapiens), Q9HCT0; recombinant FGF22 thermal shift, SYPRO orange fluorescence; percent of sucrose octasulfate shift, DMSO zero; calls only at 9.99 µM; 340,000 compounds, 1.5% hits; AID 651658, 2012;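 active means melting point raised past a set limit in the mean and every replicate; three in four hits are not shown here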
Target sequence (Q9HCT0 whole entry, looked up): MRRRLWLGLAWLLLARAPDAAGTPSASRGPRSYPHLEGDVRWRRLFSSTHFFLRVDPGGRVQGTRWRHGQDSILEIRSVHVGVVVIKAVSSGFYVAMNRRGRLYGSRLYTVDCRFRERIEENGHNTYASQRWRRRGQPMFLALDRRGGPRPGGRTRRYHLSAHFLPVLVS
HNF4A DNA FP = change in binding of human HNF4A to DNA, primary screen, biochemical, fluorescence polarization, FITC-DNA. 360,000 compounds, 0.3% hits. AID 1224865, 2016. Hepatocyte nuclear factor 4-alpha (Homo sapiens), P41235. 1 h. activity change, % at 10 µM; in the data active means activity change above about 30%, passing the limit was not always enough;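 further: controls were the assay level and a saturating level of protein; the project sought stronger binding though the title names inhibitors; some compounds called inactive have numbers as strong as hits; positive values seem to mean higher polarization but the record does not say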
Target sequence (P41235 whole entry, looked up): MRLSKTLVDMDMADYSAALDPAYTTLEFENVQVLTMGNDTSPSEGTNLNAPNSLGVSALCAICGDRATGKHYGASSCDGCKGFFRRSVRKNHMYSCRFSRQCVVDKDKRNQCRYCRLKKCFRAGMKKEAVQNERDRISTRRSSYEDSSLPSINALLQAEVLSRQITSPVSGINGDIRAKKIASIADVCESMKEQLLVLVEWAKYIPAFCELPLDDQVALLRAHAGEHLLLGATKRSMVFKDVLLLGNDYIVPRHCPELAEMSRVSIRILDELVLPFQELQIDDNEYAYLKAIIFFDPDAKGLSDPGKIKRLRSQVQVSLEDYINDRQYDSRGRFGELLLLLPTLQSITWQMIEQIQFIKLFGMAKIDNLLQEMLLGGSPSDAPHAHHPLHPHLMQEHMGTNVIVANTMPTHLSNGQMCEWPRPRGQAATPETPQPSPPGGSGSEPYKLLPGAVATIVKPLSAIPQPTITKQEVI
Ecoli growth = E. coli growth inhibition, primary screen, OD600. Escherichia coli growth, 23 h; hits give low values. OD600 absorbance (test concentration not listed). 330,000 compounds, 0.21% hits. AID 1053175, 2014;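 active means OD600 absorbance below the run mean of sample wells minus 3.6 SD, in any replicate, cut at about 0.56 in these data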;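 further: stock transfer was 300 nL into about 60 µL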
Ecoli rRNA inh = reduced GFP signal of wild-type E. coli, primary screen, bacterial rRNA inhibitor project, GFP/RFP fluorescence, OD600, single point; E. coli WT GFP vs humanized-ribosome RFP mutants, 24 h; hits give low values; DMSO median 0, no signal -100; GFP signal change (wild-type ribosome), % (concentration not given with the values); 350,000 compounds, 1.6% hits; AID 720706, 2013;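 active means significant combined selectivity score with lowered wild-type GFP, culture density cut under 30%, mutant RFP and density less affected; inactive means any of these conditions unmet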; further: one replicate is shown; some compounds called inactive have numbers as strong as hits
UCH37 DUB inh = inhibitors of human UCH37 deubiquitinase, primary screen, biochemical, Ub-AMC cleavage, fluorescence; 330,000 compounds, 0.33% hits; inhibition, % (test concentration not listed); purified proteasome/UCH37; Ubiquitin carboxyl-terminal hydrolase isozyme L5 (Homo sapiens), Q9Y5K5;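 active means mean of two replicates above 20%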;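 further: 0% = compound-free wells with enzyme and 100% = wells lacking proteasome; stock transfer was 100 nL into about 20 µL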
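Test system – human UCH37 enzyme supplied as purified proteasome complex · Incubation – 30 min preincubation with enzyme, 25 min cleavage at room temperature · Detection – AMC fluorescence from Ub-AMC cleavage, excitation 355 nm, emission 460 nm · Benchmarks – no-proteasome wells (full inhibition) and compound-free wells (no inhibition)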
ALR inh = inhibitors of human ALR sulfhydryl oxidase, primary screen, biochemical, H2O2 detection, HRP-luminol luminescence, single point | FAD-linked sulfhydryl oxidase ALR (Homo sapiens), P55789 | purified ALR, DTT oxidation | inhibition, % (test concentration not listed) | 290,000 compounds, 3.8% hits | AID 485317, 2010;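 active means mean and each replicate at 75% or more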;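 further: stock transfer was 7.5 nL into about 7.5 µL; 0% = neutral wells and 100% = wells with inactivated enzyme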
Ecoli rRNA inh OD600 = recorded beside Ecoli rRNA inh, whose call it bears; OD600 change, %; measured here: OD600 growth;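 optical density of the mix in the first replicate; 0 = DMSO median and -100 = no signal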
Ecoli rRNA inh RFP = also measured in Ecoli rRNA inh; calls as there; RFP signal change, %; measured here: RFP humanized mutant strains;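 first replicate; 0 = DMSO median and -100 = no signal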
Active calls of the source: *; i = inactive; . = no result given. A portion of the library. The share of hits here may be higher or lower than overall.

SMILES	B2AR ag	FGF22 binding	HNF4A DNA FP	Ecoli growth	Ecoli rRNA inh	Ecoli rRNA inh OD600	Ecoli rRNA inh RFP	UCH37 DUB inh	ALR inh
Cc1ccc(C(=O)NCC(=O)N(C)CC(=O)Nc2ccccc2Br)s1	11	i	3.7	0.66	3	7	-0.1	3.0	-5
O=S(=O)(c1c(F)cccc1F)N1CCCC2CCCCC21 (configuration not stated)	5	i	-0.2	0.65	-53	-56	-4.8	4.3	.
CN(CCCCCCCCCCN(C)C(=O)Oc1cccc([N+](C)(C)C)c1)C(=O)Oc1cccc([N+](C)(C)C)c1	5	i	2.2	0.71	-57	-80	-14	3.4	.
Cc1nnc(N=c2ssnc2Cl)o1	0	i	2.8	.	5	-1	-4.9	.	30
Cc1nc(NCC(c2ccccc2)N(C)C)c2c(C)c(C)sc2n1 (configuration not stated)	-5	i	-3.0	0.67	-2	-3	-0.1	4.1	-56
O=C(NCc1cccnc1)c1ccccc1NS(=O)(=O)c1ccccc1	4	i	2.1	0.69	0	-3	-0.1	-7.0	-3
Cc1ccccc1C(=O)NC(=S)Nc1ccc(Oc2ccc(Cl)cc2)cc1	4	.	-2.3	0.75	.	.	.	4.6	-2
CNc1nc(Sc2ccc(C)cc2)cc(C(F)(F)F)n1	4	.	-1.0	0.69	.	.	.	-1.9	5
O=C1C(=Cc2ccccc2Cl)CCc2ccccc21	.	i	2.1	.	-17	-25	-6.5	.	.
CCOC(=O)NN1C(=O)c2ccccc2NC1c1ccc(N(C)C)cc1 (configuration not stated)	1	.	-2.4	0.71	.	.	.	-33	23
CN(C)CCCOc1cccc(Oc2ccccc2)c1	-15	i	4.2	0.69	.	.	.	3.0	-11
COC(=O)c1ccc(C)c(NC(=O)CCc2cc(OC)c(OC)c(OC)c2)c1	11	.	-0.2	0.65	.	.	.	-1.8	5
CSC[C@H]1CN(Cc2cccnc2)C(=O)[C@@H]1CC(=O)Nc1ccc(Br)cc1	.	i	-2.7	.	1	-4	-3.0	.	.
OC(C#CCN1CCCC1)(c1ccccc1)c1cccc(F)c1 (configuration not stated)	2	.	0.2	0.71	.	.	.	5.4	0
O=C(NCCc1ccc(Cl)cc1)c1ccc2nc(N3CCOCC3)sc2c1	3	i	1.9	0.69	-4	-1	-0.9	3.2	0
O=C1CC(c2cccnc2)c2cc3c(cc2N1)OCO3 (configuration not stated)	-2	i	-0.1	0.73	4	9	0.5	3.4	5
CCCNC(=O)c1onc(CS(=O)(=O)c2cccc(OC)c2)c1C(=O)NCCC	-5	i	-0.8	0.67	9	19	-6.2	1.5	-3
Cn1nc(C(C)(C)C)cc1C(=O)N1CCCC(C)(C(=O)NS(=O)(=O)C2CC2)C1 (configuration not stated)	.	i	2.6	.	6	-1	-0.7	.	.
Cn1nc(C(F)(F)F)c(-c2ccccc2)c1NC(=O)CSCC(=O)O	2	i	-0.5	0.68	10	21	0.9	0.4	-18
CC1CCCN(C(=O)c2ccccc2OC2CCN(S(C)(=O)=O)CC2)C1 (configuration not stated)	13	i	1.8	.	5	5	1.9	.	0

Some values from the list:
O=C1CC(c2cccnc2)c2cc3c(cc2N1)OCO3 (configuration not stated) | Ecoli growth = 0.73
Cc1nnc(N=c2ssnc2Cl)o1 | B2AR ag = 0

The listing picks up with the four entries that preceded the break.
SMILES	B2AR ag	FGF22 binding	HNF4A DNA FP	Ecoli growth	Ecoli rRNA inh	Ecoli rRNA inh OD600	Ecoli rRNA inh RFP	UCH37 DUB inh	ALR inh
CCCNC(=O)c1onc(CS(=O)(=O)c2cccc(OC)c2)c1C(=O)NCCC	-5	i	-0.8	0.67	9	19	-6.2	1.5	-3
Cn1nc(C(C)(C)C)cc1C(=O)N1CCCC(C)(C(=O)NS(=O)(=O)C2CC2)C1 (configuration not stated)	.	i	2.6	.	6	-1	-0.7	.	.
Cn1nc(C(F)(F)F)c(-c2ccccc2)c1NC(=O)CSCC(=O)O	2	i	-0.5	0.68	10	21	0.9	0.4	-18
CC1CCCN(C(=O)c2ccccc2OC2CCN(S(C)(=O)=O)CC2)C1 (configuration not stated)	13	i	1.8	.	5	5	1.9	.	0
Cc1ccc(S(=O)(=O)NNC(=O)CCC(=O)Nc2ccccc2)cc1	-1	.	0.6	0.79	.	.	.	2.1	9
COc1cc(O)c(C(CCN2CCCC(C)C2)c2ccc3c(c2)OCO3)c(OC)c1 (configuration not stated)	7	i	-2.7	0.69	9	5	1.6	3.7	-14
O=C(COc1ccccc1F)Nc1ccc(S(=O)(=O)NCc2ccco2)cc1	3	.	-2.9	0.69	.	.	.	0.7	-12
CCOC(=O)[C@]12CCCC=C1N(CCC1=CCCCC1)C(=O)[C@H](CC(=O)NCCC(C)C)C2	.	i	1.0	.	5	-3	1.1	.	.
CC(c1ccccc1)N1C(=O)c2ccc(C(=O)Nc3ccc(Br)cc3C(=O)O)cc2C1=O (configuration not stated)	19	i	-12	0.62	-13	-18	-0.8	2.5	9
Cc1ccc(NC(=O)C2C3C=CC(O3)C2C(=O)O)cc1C (configuration not stated)	3	i	-1.4	.	7	-5	-0.2	.	.
CCCCc1c(C)[nH]c(=S)[nH]c1=O	1	i	2.0	0.68	12	4	2.9	3.3	-7
CCOc1ccc(NC(=O)NCc2cccnc2)cc1	-1	i	-3.2	0.72	-2	-2	-3.2	0.8	-4
COC(=O)C(C)Oc1ccc2c(c1)O/C(=C\c1cccc(Br)c1)C2=O (configuration not stated)	5	i	-0.9	0.67	8	13	1.1	1.0	.
CC1(C(=O)NS(=O)(=O)c2cccc(F)c2)CCN1C(=O)CCc1ccc(Cl)cc1Cl (configuration not stated)	.	i	1.2	.	0	11	-0.4	.	.
O=C(NCCCN1CCCC1=O)Nc1ccc([N+](=O)[O-])cc1	-22	i	1.2	0.62	1	6	-2.9	11	-1
CCn1nc(C(=O)NNC(=O)c2ccccc2OCc2c(C)noc2C)c2ccccc2c1=O	-7	i	-0.8	0.66	-6	-15	2.9	1.0	-13
CNc1nc(SCC(=O)OC)nc(N2CCOCC2)n1	0	.	1.5	0.72	.	.	.	-1.0	-4
O=C(/C=C/c1ccccc1)NC(=S)Nc1ccccc1O	3	i	0.1	0.69	-10	-11	-3.9	4.8	-6
Cc1ccc(NC(=O)N2CCCC2C(=O)Nc2c(C)cc(C)cc2C)cc1 (configuration not stated)	-1	i	4.8	0.64	5	5	0.5	4.9	0
Cc1ccc(OC(C)C(=O)N2CCc3ccccc32)c([N+](=O)[O-])n1 (configuration not stated)	.	i	0.2	.	-8	-1	-4.8	.	.
O=C(NC1CCCCCC1)C1CCN(S(=O)(=O)c2ccccc2)CC1	5	.	-1.0	0.72	.	.	.	-1.1	-6
COc1ccc(S(=O)(=O)N(CC(=O)Nc2ccccc2C(=O)N2CCOCC2)c2ccc(F)cc2)cc1	1	i	0.0	0.73	-4	-1	-0.4	-1.1	-1
O=C(/C=C/c1ccc(F)cc1)Nc1cc(S(=O)(=O)N2CCOCC2)ccc1N1CCCC1	13	.	-1.5	0.69	.	.	.	2.6	-5
Cc1c(Cl)c(C(=O)NC2CCCC2)nn1C	-1	.	2.8	0.68	.	.	.	-1.7	.
CCCc1nc(SC2CCCC2)c2c(=O)n(C)c(=O)n(C)c2n1	-5	i	0.3	0.74	4	8	0.8	-3.0	98*
CCOC(=O)CNc1nc(Cl)nc(Nc2ccc(OC)cc2OC)n1	11	i	-5.0	0.69	14	10	2.1	6.3	.
O=C(/C=C/c1ccncc1)c1ccc2c(c1)OCCO2	-1	i	-1.3	0.63	-8	-10	-2.1	2.7	-1
CC12CN3CC(C)(CN(C1)C3c1ccc3ccccc3c1O)C2=O (configuration not stated)	-4	.	2.6	0.69	1	4	-0.8	-0.6	-19
CCc1cc(=O)oc2cc(C)cc(OCC(=O)N3CCC[C@@H]3C(=O)O)c12	-10	i	-2.9	0.71	.	.	.	-155	-23
COc1ccc(CC(=O)NCc2nnc(SCC(=O)c3ccc(OC)cc3)n2C)cc1	-4	i	-0.8	0.69	-6	3	2.9	4.2	9
O=[N+]([O-])c1ccc(CSc2nnc3ccccn23)cc1	0	i	5.4	0.64	19	9	-0.3	3.4	.
CC(C)Cn1c2c(c(O)c(C(=O)Nc3nccs3)c1=O)CCCC2	-3	.	-2.4	.	.	.	.	.	-2
O=C(NCc1ccccc1)c1cc(C2CCCCN2C(=O)c2cccs2)on1 (configuration not stated)	.	i	2.8	.	-16	-8	5.0	.	.
Nc1nnnn1CC(=O)OCc1cccc(Br)c1	4	.	0.5	0.75	.	.	.	4.6	-5
CCOC(=O)/C=c1/s/c(=C/c2ccc3cc(OC)ccc3c2)c(=O)n1CC(=O)NCC1CCCO1 (configuration not stated)	2	i	34	0.73	.	.	.	-33	.
O=c1c2ccccc2cnn1-c1nc2ccccc2[nH]1	-7	i	1.8	0.69	7	27	5.3	-101	.
O=C(COc1ccccc1)Nc1ccccc1C(=O)NCc1ccco1	5	.	-1.1	0.71	.	.	.	1.2	.
Cc1cc(N2CCCCC2)n2ncc(-c3ccc(Cl)cc3)c2n1	15	.	-3.1	0.72	.	.	.	-81	-4
Cc1c(C(=O)N2CCN(c3ccc(F)cc3)CC2)sc2nc(-c3ccccc3)cn12	-7	.	2.8	0.72	.	.	.	3.3	-1
Cc1nn(C)c(Oc2ccccc2)c1[N+](=O)[O-]	-31	.	-2.9	0.68	.	.	.	-2.1	-3
O=C(NCc1ccccc1)C1=C[C@H](C2CCCCC2)C[C@H](OCc2ccc(CO)cc2)O1	-3	i	5.5	.	-7	-8	0.9	1.4	-10
CCC(=O)Nc1ccc(Cl)c(NC(=S)NC(=O)c2ccco2)c1	-20	i	2.3	0.7	-9	-11	-1.4	2.3	45
CCOC(=O)C1(C)CCCN(C(=O)c2ccc3ccccc3c2)C1 (configuration not stated)	.	i	-0.6	.	-1	-2	-4.1	.	.
CCOc1ccc(C(=O)CC(NCc2cccs2)C(=O)O)cc1 (configuration not stated)	6	.	-2.8	.	13	6	2.9	.	97*
NC(=O)C1=C[C@H](C2CCCCC2)C[C@H](OCc2ccc(CO)cc2)O1	0	i	0.4	.	.	.	.	3.2	22
CC(C)(CO)NC(=O)CC1C(=O)NCCN1CC(c1ccccc1)c1ccccc1 (configuration not stated)	-1	i	6.0	0.69	16	17	0.8	-1.6	-7
CCOc1ccc(S(=O)(=O)N2CCC(C(=O)NCc3ccncc3)CC2)cc1	-6	i	0.3	0.67	2	0	-0.1	1.4	-2

3 entries drawn at random from the list so far, as already listed:
SMILES	B2AR ag	FGF22 binding	HNF4A DNA FP	Ecoli growth	Ecoli rRNA inh	Ecoli rRNA inh OD600	Ecoli rRNA inh RFP	UCH37 DUB inh	ALR inh
CC(C)Cn1c2c(c(O)c(C(=O)Nc3nccs3)c1=O)CCCC2	-3	.	-2.4	.	.	.	.	.	-2
CCOC(=O)/C=c1/s/c(=C/c2ccc3cc(OC)ccc3c2)c(=O)n1CC(=O)NCC1CCCO1 (configuration not stated)	2	i	34	0.73	.	.	.	-33	.
NC(=O)C1=C[C@H](C2CCCCC2)C[C@H](OCc2ccc(CO)cc2)O1	0	i	0.4	.	.	.	.	3.2	22
